Env fusion inh – inhibitors of HIV Env-mediated cell fusion; HeLa-JRFL Env/CEM21 cell fusion, luciferase; 1.1% of 360,000 active; AID 651610; inhibition, % at 12.3 µM;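 active = mean replicate inhibition score of at least 50 and every replicate individually at or above 50; inconclusive = only one of the two criteria met; inactive = mean below 50 and not all replicates reaching 50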;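 also: 0% = plate neutral controls and 100% = maraviroc near 300 nM; one replicate is shown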
Rce1 inh – inhibitors of yeast Ras-converting enzyme | Q03530 | yeast membranes, quenched prenylated peptide cleavage fluorescence | calls only | 0.27% of 290,000 active;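 active = fall in fluorescence gain of 50% or more versus controls, with final raw signal at or below 3038400; inconclusive = same 50% fall but final raw signal above 3038400; inactive = fall in fluorescence gain under 50%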;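 also: plate controls were neutral control wells for no effect and wells lacking membranes for full effect; tested at 10 µM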
Target sequence (Q03530 whole entry, looked up): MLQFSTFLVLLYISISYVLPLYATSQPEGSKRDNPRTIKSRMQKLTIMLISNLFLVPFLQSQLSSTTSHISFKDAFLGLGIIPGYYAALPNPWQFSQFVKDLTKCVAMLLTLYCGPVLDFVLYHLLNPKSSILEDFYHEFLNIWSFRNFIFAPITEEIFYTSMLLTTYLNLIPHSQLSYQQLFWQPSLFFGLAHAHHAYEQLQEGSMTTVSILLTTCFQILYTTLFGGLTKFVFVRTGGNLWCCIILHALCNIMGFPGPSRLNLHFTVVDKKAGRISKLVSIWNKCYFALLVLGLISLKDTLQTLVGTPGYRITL
PABP polyA inh – blocks human PABP binding to poly(A) RNA; P11940; fluorescence polarization; inhibition, % at 35 µM; 1% of 290,000 active;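 active = 50% or more with normal probe brightness, or confirmed in later tests; inconclusive = above 50% with abnormal brightness, or retests that disagree; inactive = below 50% or failed in later tests; about a fifth of its hits are not listed in these tables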;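 also: calls also rest on retests at 20 µM and on dose response follow-up; controls were probe without protein and protein plus probe with vehicle; some compounds called inactive have numbers as strong as hits; many hits fall short of the cut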
MT1-MMP act inh – MT1-MMP (human) activation inhibition; P50281; HT1080 RFP-PRO-GFP cells, GFP/RFP ratio fluorescence, overnight; percent of plate control window, DMSO zero; GFP/RFP ratio change, % at 20 µM; 0.061% of 360,000 active; AID 651647;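 active = GFP/RFP ratio change of at least 30% with cell ATP level not reduced by more than half and red fluorescence within 50% of control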; also: strong numbers were not always called active
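system = RFP-PRO-GFP reporter HT1080 cells | dosing = 20 µM single dose, 1% DMSO | timing = overnight cell settling, then overnight compound exposure, 37 °C, 5% CO2 | read-out basis = GFP/RFP fluorescence ratio | controls = DMSO and RFP-L50D-GFP cell wells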
eIF4H FP inh – inhibitors of RNA binding by human eIF4H | eIF4H fluorescence polarization binding assay | inhibition, % at 35 µM | 0.94% of 290,000 active | AID 2012;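 active = 50% or more with normal probe brightness, or confirmed in later tests; inconclusive = above 50% with abnormal brightness, or retests that disagree; inactive = below 50% or failed in later tests; about a fifth of its hits are not listed in these tables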;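 also: calls also rest on retests at 20 µM and on dose response follow-up; 0% = protein and probe with vehicle and 100% = probe without protein; strong numbers were not always called active; many hits fall short of the cut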
CSC inhib – cancer stem cell inhibition; cancer stem cell-like cells viability, luminescence; inhibition, % at 7.5 µM; 1.1% of 300,000 active;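 active = mean at 75% or more and at least half the replicates too; inconclusive = mean and replicates disagree; tested in HMLE shEcad cells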;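 also: 0% = median of negative and 100% = median of positive control wells; the first replicate is given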
UUG fidelity – yeast start codon fidelity modulation. 0.13% of 350,000 active. S. cerevisiae UUG-firefly luciferase reporter, luminescence/redox ratio. activity score, % at 18.7 µM;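 active = replicate mean at a twofold rise or more, about +100% in these data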;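 also: firefly luciferase made from a UUG start codon reports start codon fidelity; reporter light over untreated wells divided by growth signal over untreated wells; some hits fall short of that in this replicate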
eIF4H FP inh retest – recorded beside eIF4H FP inh, whose call it bears; inhibition, %; compound at 20 µM; confirmation average;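 mean of two retest wells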
PABP polyA inh retest – also measured in PABP polyA inh; calls as there; inhibition, %; compound at 20 µM; confirmation repeats;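 mean of two retest wells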
MT1-MMP act inh RFP – further read-out of MT1-MMP act inh, marked with its call; RFP signal change, %; measured here: RFP expression control read;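 0 = vehicle wells; hits needed this value within 50% of zero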
Active calls of the source: *; i = inactive; ? = inconclusive; · = not tested or not shown. The order is random. About 2.9% of those tested had a hit in this group.

SMILES	Env fusion inh	Rce1 inh	PABP polyA inh	MT1-MMP act inh	MT1-MMP act inh RFP	eIF4H FP inh	CSC inhib	UUG fidelity	others
CCC(CC)c1nnc(NC(=O)CCc2ccccc2)s1	-4	i	-2	-2	-1	0	-1	0
CCCCNC(=O)CSc1nc(N)c(C(=O)Nc2ccc(OC)cc2)s1	-4	i	8	1	0	-12	-8	·
Cc1cc(Cl)ccc1OCC(=O)Nc1cccnc1	-69	i	4	-1	-4	-10	-9	·
CCCCN(C)C(=O)c1sc(=O)n(Cc2ccccc2F)c1C	-31	·	·	5	1	·	·	-15
COc1ccccc1OCc1nc(C#N)c(NCCCn2ccnc2)o1	2	i	1	-1	1	7	6	-1
CC(NC(=O)COC(=O)/C(=C/c1cccs1)c1cccs1)c1ccccc1 (stereo unspecified)	4	i	0	-6	-15	7	-3	·
O=C(NNC(=O)c1cccs1)c1ccc(F)cc1	-4	i	12	1	1	-15	28	-11
CCCCCCNc1c(C(=O)OCC)c(=O)[nH]c2ccccc12	10	i	-7	-5	-6	5	18	3
Cn1nc(C(F)(F)F)c(C#N)c1N1CCN(c2ccccn2)CC1	28	i	0	-6	-9	-3	12	·
COc1ccc(CC2(CO)CCN(Cc3cccnc3)CC2)cc1	11	i	-5	3	3	-4	5	0
CNC(=S)N1CCN(c2c(F)cc3c(=O)c(C(=O)O)cn(C4CC4)c3c2OC)CC1C (stereo unspecified)	·	i	-8	0	2	1	-15	-25
COc1cccc(/C=N/NC(=O)CSc2cccc3cccnc23)c1	-15	i	4	6	2	1	13	-11
CC(C)CCn1c(=O)c2ccccc2n2c(CCC(=O)NC3CCN(Cc4ccccc4)CC3)nnc12	0	i	-4	3	4	-2	·	-13
CCOC(=O)C1(C)CCCCCN1C(=O)c1ccc(C(=O)OC)cc1 (stereo unspecified)	-26	·	·	1	6	·	·	-1
O=C(O)c1cc(N2C(=O)C3C4C=CC(C4)C3C2=O)ccc1NCc1cccnc1 (stereo unspecified)	3	i	19	5	4	12	-1	-9
CCOC(=O)C1CCN(C(=O)N2CCOCC2)CC1	-3	i	-8	3	5	-2	-5	-20
Cc1ccccc1-c1csc(C(O)c2ccc(F)cc2)n1 (stereo unspecified)	-29	·	·	3	3	·	·	-12
Cc1nn(-c2ccccc2)c(C)c1C(=O)Nc1ccc(N2CCOCC2)cc1	15	i	6	4	8	-3	6	·
COc1ccccc1-c1nc(N)n[nH]1	-7	i	-7	-7	2	-6	-8	·
CCCc1nc2oc3ccccc3c(=O)c2c(=O)n1-c1ccc(C)cc1	-119	i	12	-2	3	-1	-15	12
O=C(c1ccc(N2CCCC2=O)cc1)N1CCN(c2ccccc2F)CC1	0	i	8	-1	-2	-2	-5	-3
COc1cc(CNc2ncn[nH]2)cc(Br)c1OC	-45	i	3	13	4	-4	-11	-19
Cc1cccc(/C=C2\CCC(C3CCCC3)C2=O)c1 (stereo unspecified)	3	i	16	-2	0	-11	-6	-3
COCCCN(Cc1ccco1)C(=O)c1cc2c(s1)-c1ccc(Cl)cc1S(=O)(=O)C2	10	i	-10	-1	-5	-14	-8	-13
COc1ccc(C(=O)N/C(=C\c2ccccc2)C(=O)Nc2ccccc2C(=O)O)cc1	3	i	·	0	2	·	-12	·
CCn1cc(C(=O)NCc2ccco2)c2cc(OC)c(OC)cc2c1=O	26	i	4	5	4	-3	-15	4
COC(=O)C1=C(C)NC(C)=C(C(=O)OCC2CCCO2)C1c1cccc(Cl)c1 (stereo unspecified)	18	·	-21	-5	-5	-12	-7	-5
O=C1CN(C(=O)c2ccc(Br)o2)C(c2ccccc2)c2cc(Cl)ccc2N1 (stereo unspecified)	58*	i	-8	-22	-12	-1	-10	-7
N#CCCN(C(=O)COC(=O)C12CC3CC(CC(O)(C3)C1)C2)c1ccc(F)cc1	27	·	·	0	4	·	·	-1
C[C@]12CCC[C@H](O1)c1c(cc3c(c1O)C(=O)c1c(O)cc(O)cc1C3=O)O2	·	i	·	-73	1	·	-6	-22
FC(F)(F)c1ccc(-n2cnc3ccccc32)nc1	-20	i	2	-7	-2	-11	-5	-7
Nc1nc(C2CC(=O)OC23CCCCC3)cs1 (stereo unspecified)	·	i	12	-1	6	13	·	-23
N#C/C(=C\c1ccc(O)c(O)c1)S(=O)(=O)c1ccccc1	-22	i	10	-27	0	2	8	-9
Clc1ccc2oc3c(Cl)ncnc3c2c1	-13	i	-1	-8	-2	-4	-3	·
CCN(CC)c1nc2c(c(=O)[nH]c(=O)n2C)n1CCOc1ccccc1	-46	i	8	4	0	0	-15	6
COc1cc(CNCCSc2nnnn2C)cc(Br)c1OCc1ccc(F)cc1	·	i	2	3	-5	6	20	1
O=C(NCc1nnc(SCC(=O)N2CCN(c3ccccc3)CC2)o1)c1ccco1	·	i	4	2	0	-8	·	-10
Cc1cc(C(=O)CS(=O)(=O)c2ccc(Cl)cc2)cc(C)c1O	-17	i	2	0	0	-6	2	·
CCOC(=O)c1ccc2cccc(C)n2c1=O	·	i	7	3	1	10	-4	-19
COC(=O)c1ccccc1NC(=O)CSc1nnnn1C	·	i	-7	3	2	0	2	-21
CCc1cccc(CC)c1NC(=O)C1CSC2(C)CCC(=O)N12 (stereo unspecified)	·	i	·	0	0	·	-10	-12
Cc1ccc(SCC(=O)NCc2ccco2)cc1	·	i	-2	-2	0	-11	2	-16
Cc1ccc(S(=O)(=O)N2CCN(c3nc4ccccc4nc3-n3nc(C)cc3C)CC2)cc1	·	i	22	-53	-40	-7	-10	3
Cc1ccccc1C(=O)OC(C)CN1CCN(C)CC1 (stereo unspecified)	4	i	2	-3	-2	-3	-18	-7
CCOC(=O)C1=C(C)N(C[C@@H]2CC[C@@H](Cc3ccc4cc(OC)ccc4c3)O2)C(=O)NC1c1ccc(OC)cc1 (stereo partly specified)	?	·	·	0	-19	·	·	2
CC1(Cc2cccc(C#N)c2)C(=O)Nc2ccc(-c3cccc(C(F)(F)F)c3)cc21 (stereo unspecified)	76*	·	·	-12	-19	·	·	-11
CCCCCC(=O)Nc1cccc(C2=NOC3(C2)C[C@@H](C(N)=O)N(C(=O)Cc2ccc([N+](=O)[O-])cc2)C3)c1 (stereo partly specified)	17	i	-7	2	-4	-11	-13	23
CN(C)CCCCCN(C)Cc1cc2ccccc2o1	12	i	58	5	6	-9	-10	·	eIF4H FP inh retest=-5;PABP polyA inh retest=-6
COc1ccc(C(=O)NCc2nnc(SCC(=O)Nc3cccc(F)c3)o2)cc1	24	·	-1	-1	-3	5	-4	·
Brc1cccc(OCCOCCn2ccnc2)c1	-19	i	21	-1	1	-9	-1	-12
CCOC(=O)N1CCC(N(C(=O)Nc2ccccc2)C(C)CC)CC1 (stereo unspecified)	-12	·	-6	-4	-2	-8	-3	-11
CC1=C(C(=O)N(C)C)CC(CC(=O)NCCCCc2ccccc2)C(=O)N1CCCN1CCCC1=O (stereo unspecified)	-60	·	·	4	6	·	·	-3
CC(NS(=O)(=O)c1ccc(Br)s1)c1ccccc1 (stereo unspecified)	7	i	1	-3	0	1	-4	-6
COc1cc(NC(=O)COC(=O)CCOc2ccc(C)cc2)cc(OC)c1	2	i	3	2	4	-4	-7	9
CCOCCCNC(=O)C(c1ccc(C)cc1)N(Cc1cccs1)C(=O)c1ccccn1 (stereo unspecified)	6	·	-4	0	-1	-6	-8	·
COc1cc(C(=O)Nc2ccc(NC(=O)c3cccc(Cl)c3)nc2)cc(OC)c1OC	33	i	6	7	-5	4	·	-9
O=C(COC(=O)Cc1c[nH]c2ccccc12)Nc1c(Cl)cccc1C(F)(F)F	0	i	·	-1	0	·	-11	·
CCOC(=O)c1c(NC(=O)C[n+]2ccc(N(C)C)cc2)sc(C)c1C	4	i	-3	-5	3	10	6	-10
COC(=O)c1ccccc1S(=O)(=O)NNC(=O)C12CC3CC(CC(C3)C1)C2	1	·	·	2	-1	·	-12	·
O=C(O)c1cc(S(=O)(=O)Nc2ccc3oc(=O)sc3c2)ccc1O	·	i	5	·	·	4	0	·

(more compounds)
SMILES	Env fusion inh	Rce1 inh	PABP polyA inh	MT1-MMP act inh	MT1-MMP act inh RFP	eIF4H FP inh	CSC inhib	UUG fidelity	others
COc1ccc(-c2nn(-c3ccccc3)cc2/C=C2/SC(=S)N(Cc3ccco3)C2=O)c(C)c1	-71	i	1	3	-5	29	6	-14
CC1(C(=O)O)CCCN1C(=O)c1ccco1 (stereo unspecified)	-3	·	·	8	8	·	·	-18
O=[N+]([O-])c1cccc(-c2ccc(C(=S)N3CCOCC3)o2)c1	-137	i	11	2	-4	-12	·	-29
COc1cc2cc(CCCOC(=O)c3ccc(Br)cc3)oc(=O)c2cc1OC	-34	·	·	0	1	·	-3	7
O=C1NCCCC1C(=O)N1CCCCC1 (stereo unspecified)	-5	i	-10	1	7	2	-9	-3
CCOC(=O)N1CCN(S(=O)(=O)c2ccc(C(=O)N(CCN(C)C)c3nc4ccc(CC)cc4s3)cc2)CC1	5	i	1	5	2	-1	-12	2
Cc1ccc(Nc2nc(N)nc(CN3CCN(Cc4ccccc4)CC3)n2)cc1Cl	-187	i	-4	-3	0	-5	-4	·
Cc1cc(C)c2c(n1)nn1c(-n3ccnc3)cc(C)nc21	-7	·	-5	2	0	3	·	-19
CS(=O)(=O)N(CC(=O)Nc1ccc(S(=O)(=O)N2CCOCC2)cc1)c1ccccc1Br	3	i	11	-2	0	2	8	-30
O=C(NNS(=O)(=O)c1ccc2ccccc2c1)c1cccs1	-7	i	12	1	0	-11	13	·
CC(=O)Nc1cc(-c2cccc(CO)c2)cn2c(-c3cccc(C(F)(F)F)c3)cnc12	-5	·	·	-3	-6	·	·	-25
COc1cccc(N2CCN(CC(=O)Nc3ccnn3C3CCCC3)CC2)c1	-446	·	·	3	-19	·	·	12
COc1ccc(OCc2cc(C(=O)NC(C)c3cnn(C)c3)no2)c(Cl)c1 (stereo unspecified)	-38	i	13	-4	2	-1	-11	7
O=S(=O)(Nc1cnc2ccccc2c1)N1CCCCCC1	·	i	12	1	-17	0	-8	1
COc1ccc(OCCN2C(=O)c3ccccc3C2=O)cc1	-25	i	-8	9	-4	-9	0	2
Cn1/c(=N\NC(=O)C2CCCCC2)sc2ccccc21	-25	i	22	-1	2	-7	-6	·
CCCc1[nH][nH]c(=O)c1C(c1cccc(Cl)c1)C(C#N)C#N (stereo unspecified)	-11	i	10	-2	-5	-12	8	·
COc1ccc(C2CC(=O)Oc3cc4c(cc32)OCO4)cc1 (stereo unspecified)	-8	·	·	2	6	·	·	-8
CN(C)C(CNC(=O)c1cccc(NS(=O)(=O)c2ccc(Br)cc2)c1)c1ccco1 (stereo unspecified)	-10	i	·	-2	-3	·	-6	-3
CCN(CC)CCn1c2c(c(SCC(=O)Nc3nc4ccccc4s3)nc1=O)CCC2	·	i	·	-3	2	·	-22	13

4 compounds drawn at random from the list so far:
SMILES	Env fusion inh	Rce1 inh	PABP polyA inh	MT1-MMP act inh	MT1-MMP act inh RFP	eIF4H FP inh	CSC inhib	UUG fidelity	others
COc1cc(CNc2ncn[nH]2)cc(Br)c1OC	-45	i	3	13	4	-4	-11	-19
COc1ccc(OCc2cc(C(=O)NC(C)c3cnn(C)c3)no2)c(Cl)c1 (stereo unspecified)	-38	i	13	-4	2	-1	-11	7
CC(C)CCn1c(=O)c2ccccc2n2c(CCC(=O)NC3CCN(Cc4ccccc4)CC3)nnc12	0	i	-4	3	4	-2	·	-13
COc1cccc(/C=N/NC(=O)CSc2cccc3cccnc23)c1	-15	i	4	6	2	1	13	-11

Screens: PubChem BioAssay, several laboratories
